gsp antagonist – antagonists of gsp mutant (McCune-Albright syndrome) | gsp-mutant cells, cAMP HTRF, 30 min; control for the full effect not named in the record | 340,000 compounds, 0.4% hits | Potency, µM (titrated, usually from 76.9 µM), inactives show at the highest dose activity change, negative = inhibition, hits mostly inhibitors | AID 624288; active = falling curve of any shape with a large fitted effect; inconclusive = falling curve, mostly with a smaller effect; inactive = flat or rising curve; cell line not stated here;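 further: intracellular cAMP measured with PDE inhibitor Ro 20-1724 present during compound exposure; potency means the concentration at half of the fitted maximal effect; on the % scale 0 is the no-effect control and ±100 the full control effect; nearly all actives have a fitted effect of over 65% in size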
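Cells, 2000/well, grown 16–24 h in DMEM 10% FBS with 0.5 mg/ml G418, then compounds plus […] (300 uM addition stock), 30 min at 37C. cAMP read by HTRF (cAMP-d2 and anti-cAMP antibody-K in lysis buffer) after 30 min RT.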
TRPML1 blocker – human mucolipin-1 channel inhibition; TRPML1-inducible cells, Ca2+ dye fluorescence, FDSS; active compounds read low; inhibition of EC80 agonist-evoked calcium signal; Q9GZU1; activity change, negative = inhibition, % (concentration not given with the values); 390,000 compounds, 0.02% hits; AID 624415; in the data active means activity change below about -50%; inconclusive means about -30% to -50%; inactive means above about -30%;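 further: stimulus is agonist 54-4 at its EC80 concentration; on the % scale 0 is the no-effect control and ±100 the full control effect; the text of the record puts the active cut at -80%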
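Tet-induced TRPML1-DL cells loaded with Ca8 no-wash calcium dye were read kinetically on FDSS. Compound addition was followed by EC80 agonist 54-4 (4 uM final); inhibition was read over 110 s.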
TRPV1 PAM – enhances activation of the human vanilloid receptor TRPV1; AID 540277; TRPV1-expressing cells, Fluo-8 calcium influx, capsaicin EC20 potentiation; host cell line not named in the record; control for the full effect not named in the record; Q8NER1; 320,000 compounds, 0.02% hits; potentiation, % at 8.33 µM; active means potentiation above 80%; inconclusive means 30% to 80%; inactive means below 30%; further: 0% is about no effect
Target sequence (Q8NER1 whole entry, looked up): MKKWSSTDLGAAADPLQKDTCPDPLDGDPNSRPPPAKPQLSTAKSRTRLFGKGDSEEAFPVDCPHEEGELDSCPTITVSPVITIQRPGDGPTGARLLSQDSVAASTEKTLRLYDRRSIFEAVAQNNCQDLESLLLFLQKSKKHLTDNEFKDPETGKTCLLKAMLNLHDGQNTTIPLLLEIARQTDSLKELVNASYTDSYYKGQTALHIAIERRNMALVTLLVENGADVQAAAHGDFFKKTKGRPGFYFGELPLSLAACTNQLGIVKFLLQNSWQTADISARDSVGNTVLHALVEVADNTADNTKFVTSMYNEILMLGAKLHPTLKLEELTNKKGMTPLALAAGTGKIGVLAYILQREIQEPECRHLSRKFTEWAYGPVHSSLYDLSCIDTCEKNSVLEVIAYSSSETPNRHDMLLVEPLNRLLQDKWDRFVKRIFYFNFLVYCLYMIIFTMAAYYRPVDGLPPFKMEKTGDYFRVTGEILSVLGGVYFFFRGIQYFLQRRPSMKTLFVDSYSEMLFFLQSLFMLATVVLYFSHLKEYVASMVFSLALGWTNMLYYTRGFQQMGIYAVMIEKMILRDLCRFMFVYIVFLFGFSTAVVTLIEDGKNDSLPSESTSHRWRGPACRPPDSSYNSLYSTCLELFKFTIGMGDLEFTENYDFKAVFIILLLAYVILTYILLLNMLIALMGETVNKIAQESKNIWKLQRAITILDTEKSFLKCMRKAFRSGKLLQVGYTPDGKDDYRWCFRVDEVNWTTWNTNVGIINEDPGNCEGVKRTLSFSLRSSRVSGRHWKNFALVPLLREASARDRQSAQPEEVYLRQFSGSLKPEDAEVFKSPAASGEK
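Fluo-8 calcium influx in TRPV1-expressing cells, kinetic read (ex 480/em 520 nm). Compound added and read 3 min for agonist activity, followed by capsaicin at EC20 final and 2 min further read for enhancement.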
Menin-MLL FL inh – displaces fluorescein MLL peptide from human menin. FP activity change, % at 61.4 µM. 290,000 tested, under 10 active. AID 1766. Fluorescence polarization, fluorescein-MLL peptide displacement from menin; inconclusive = falling polarisation curve, or a change in total fluorescence; inactive = total fluorescence flat and polarisation flat or rising; no compound was filed as active; the % refers to the polarisation; negative = inhibition;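 further: % of control where 0% means no effect; inhibitors lower the polarisation; unlabelled MLL peptide was the positive control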
Sfp PPTase inh – Sfp phosphopantetheinyl transferase inhibition | Q9F4F7 | Biochemical Sfp PPTase activity, qHTS | Potency, µM, without a hit: max response, negative = inhibition, most hits filed as inhibitors | 310,000 compounds, 3.5% hits; active means well fitted inhibition curve with a large enough effect; inconclusive means small, poorly fitted or top-dose-only effect, or another doubt; inactive means no such curve, though single readings can be large or run the other way;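 further: the enzyme is Sfp with the accession as filed and its product quenches rhodamine fluorescence; potency means the concentration at half of the fitted maximal effect; 0% = enzyme reaction without inhibitor and -100% = no enzyme wells; top concentration of the series not given in the record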
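After 15 min at room temperature with compound, 15 nM Sfp received 5 uM rhodamine-CoA plus 12.5 uM BHQ-2-ybbR (50 mM Hepes pH 7.6, 10 mM MgCl2). Rate came from the fluorescence difference over 30 min, ex 525/em 598 nm.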
gsp ag – activates gsp, the McCune-Albright syndrome mutation; AID 624287; gsp mutant cells, cAMP HTRF, 30 min; control for the full effect not named in the record; 340,000 compounds, 0.13% hits; Potency, µM (series often up to 76.9 µM), inactives show at the highest dose activation (cAMP increase), actives largely listed as activators; active = well fitted activation curve with a large enough effect; inconclusive = small, poorly fitted or top-dose-only effect, or another doubt; inactive = no such curve, though single readings can be large or run the other way; cell line not stated here;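 further: phosphodiesterase inhibitor Ro 20-1724 added with compounds to block cAMP breakdown; potency means the concentration at half of the fitted maximal effect; nearly all actives have a fitted effect of over 60% in size; about a fifth of the inactives were tested at one dose only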
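Cells stably selected in G418 were plated at 2000/well, grown 16-24 hr, then given compounds in DMSO with the PDE inhibitor […] (300 uM solution added) for 30 min at 37C; cAMP was read by HTRF.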
ClpP mod – qHTS Assay for Activators of ClpP; ATP-dependent Clp protease proteolytic subunit (Bacillus subtilis (strain 168)), P80244; purified B. subtilis ClpP, FRET peptide cleavage, 20 min; Potency, µM (series often up to 57.5 µM), for the others: at the top dose activity change, negative = active; 340,000 compounds, 1.9% hits; AID 651965, 2013; active = well fitted falling curve with a large enough effect; inconclusive = small, poorly fitted or top-dose-only effect; inactive = no such curve, though single readings can be large or run the other way; further: potency means the concentration at half of the fitted maximal effect; the source files actives as falling curves though it sought activators and does not explain the sign; nearly all actives have a fitted effect of over 65% in size; many hits overshoot -100%
Target sequence (P80244 whole entry, looked up): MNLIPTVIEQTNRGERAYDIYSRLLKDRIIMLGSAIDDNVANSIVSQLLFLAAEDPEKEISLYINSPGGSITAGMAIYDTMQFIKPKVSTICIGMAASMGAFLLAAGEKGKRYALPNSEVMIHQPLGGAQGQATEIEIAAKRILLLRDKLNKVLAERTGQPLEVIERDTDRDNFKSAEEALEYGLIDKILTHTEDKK
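Purified B. subtilis ClpP, 10 microg/mL final in Tris/HCl pH8 with KCl, BSA, glycerol and Tween-20, cleaved an Abz/nitrotyrosine-quenched decapeptide. Fluorescence (ex 320, em 430) was read at 0 and 20 min at room temperature. Delta was normalized to 5.8 microM ADEP and DMSO/no-enzyme controls.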
* hit, by the source's call; ? = inconclusive; nt = no result given; & = joins results of further samples; [ ] = remark or other dose.

SMILES | gsp antagonist | TRPML1 blocker | TRPV1 PAM | Menin-MLL FL inh | Sfp PPTase inh | gsp ag | ClpP mod
Cc1cc(NS(=O)(=O)c2ccc(NC(=O)Nc3cccc(Cl)c3)cc2)no1 | -2% | -17 | 8 | -0.9 | 11% | 11% | -1.4%
CCOCCOC(=O)NCCCCCCNC(=O)OCCOCC | 6% | -3 | -11 | 1.2 | 16% | 0% | -4.1%
O=S(=O)(c1ccc2ccccc2c1)N1CCN(C(=S)Nc2ccc(F)c(Cl)c2)CC1 | ? | 4 | 9 | -0.1 | 26% | -14% | -3.1%
C[C@@H]1CN([C@@H](C)CO)C(=O)c2cc(NC(=O)Nc3cccc4ccccc34)ccc2O[C@@H](C)CCCCO[C@H]1CN(C)C(=O)c1ccccc1 | nt | -2 | nt | nt | nt | -39% | ?
COc1cc(/C=N/Nc2nc(=O)[nH]nc2C)cc([N+](=O)[O-])c1O | -29% | 1 | 24 | -1.2 | 56µM* | ? | 0.8%
CC(C)NOC(=O)c1ccc(Cl)cc1 | 9% | -22 | -1 | 0.6 | -3% | 6% | 0.1%
O=C(CN(Cc1ccccc1)C1=NCCS1)c1ccc(Cl)cc1 | -3% | 75 | -8 | 5.1 | -8% | -1% | -3.8%
COC(=O)[C@@]12CCCCN1[C@H](c1ccc(SC3CCCCC3)cc1)[C@@H]1C(=O)N(C)C(=O)[C@@H]12 | 5% | 12 | -4 | nt | nt | nt | 0.6%
CC(C)(C)C1CCC(=NNc2ccc(S(N)(=O)=O)cc2[N+](=O)[O-])CC1 (configuration not stated) | -10% | 88 | -3 | 5.1 | 14% | 2% | -3.1%
CC(Oc1ccc(Br)cc1)C(=O)NCC(C)(C)N1CCOCC1 (configuration not stated) | 2% | -14 | 23 | nt | nt | -1% | 2.0%
Cn1cccc1/C=C1\SC(=S)N(NC(=O)c2ccc(Cl)cc2)C1=O | -18% | 74 | 8 | ? | ? | -29% | 1.8%
Cc1ccc2c(=O)[nH]c(Cc3ccccc3C(=O)O)nc2c1 | -15% | 22 | -3 | -5.6 | 18% | -25% | -13%
Cc1nc2oc3c(NCC4CCCO4)ncnc3c2c2c1COC(C)(C)C2 (configuration not stated) | 8% | -20 | -15 | nt | 10% | 6% | -2.7%
Cc1cccc(NC(=O)CSc2nnc(NC(=O)CN3CCCCC3)s2)c1 | nt | nt | 3 | 9.1 | -19% | nt | nt
CCCC1(c2ccsc2)NC(=O)NC1=O (configuration not stated) | 16% | -17 | nt | nt | nt | ? | -0.3%
COc1ccccc1N1CCN(c2ncnc3sc(C)c(-c4ccccc4)c23)CC1 | 1% | -1 | 11 | 5.5 | -13% | -4%[15.4 µM] | nt
CCN(CC(=O)Nc1ccccc1C(F)(F)F)C(=O)c1ccccc1Cc1ccccc1 | -2% | 19 | -18 | nt | nt | -16% | -2.8%
COc1ccc(C(=O)C(=NN)c2ccccc2)cc1 | nt | 3 | nt | nt | nt | 17% | 0.8%
Cc1cccc(NC(=O)c2ccc(N(C)C3CCCCC3)c([N+](=O)[O-])c2)n1 | ? | 29 | -18 | 0.6 | 2% | -23% | -1.5%
CCN(Cc1cccc(OC)c1)CC1CCCN(CCc2cccc(OC)c2)C1 (configuration not stated) | -9% | 15 | -4 | 2.8 | 2% | ? | 1.2%
Cc1ccc2c(c1)C(c1ccccc1)N(C(=O)c1cccc([N+](=O)[O-])c1)CC(=O)N2 (configuration not stated) | -5% | 11 | -13 | -0.1 | 6% | -61%[inhibitor] | nt
COCCCNc1nc2ccccc2nc1NS(=O)(=O)c1cccc(Cl)c1 | -16% | -6 | 6 | -21 | 24% | ? | -8.5%
CCCOC(=O)c1ccc(Oc2cn[nH]c2-c2ccc(OCC(=O)NN)cc2O)cc1 | -14% | 3 | 5 | -2.4 | 17% | 4% | -1.3%
Cn1cc(CNC(=O)c2sc3cccc(Cl)c3c2Cl)cn1 | 5% | -12 | -6 | 0.5 | -4% | 1% | 0.2%
CCCCNc1cc(C(=O)O)cc(S(N)(=O)=O)c1Oc1ccccc1 | -3% | 32 | 3 | 0.6 | 8%&23%&0%&14% | nt | 4.1%
Cc1ccc(NC(=O)c2ccc3ccccc3n2)cc1S(=O)(=O)N1CCOCC1 | -23% | 48 | -7 | 0.2 | 5% | -11%[15.4 µM] | nt
O=C1c2ccccc2C(=O)N1CC1CCCO1 (configuration not stated) | 3% | -11 | 7 | 1.3 | 15% | ? | -1.9%
CSc1nncc(-c2ccccc2)n1 | 6% | -6 | 10 | 1.3 | 1% | 11%[15.4 µM] | 1.6%
O=C(CCn1c(=O)oc2ccccc21)N1CCN(c2ccccc2F)CC1 | 2% | 4 | 1 | 2.2 | 4% | -32%[inhibitor] | 1.2%
Cc1cc(-c2ccco2)n(CC(=O)NCCN(C)C)n1 | 9% | 19 | 2 | -0.4 | 19% | -9% | -3.8%
CCOC(=O)C1CCCN(C(=O)CCNC(=O)Cn2ccc3ccccc3c2=O)C1 (configuration not stated) | 7% | -5 | 5 | 4.9 | 7% | 4% | nt
Cn1c(=O)c2c(nc(Sc3ncnn3CC(=O)N3CCOCC3)n2C)n(C)c1=O | 7% | 3 | -5 | -2.7 | 9% | ? | 1.1%
Cc1csc(NC(=O)c2cc(C)on2)n1 | 1% | -1 | -4 | nt | nt | -59%[inhibitor] | 1.0%
CCN(CC)S(=O)(=O)c1ccc(Cl)c(NC(=O)COC(=O)c2ccc([N+](=O)[O-])o2)c1 | -18% | 2 | -2 | -2.4 | 5% | ? | -0.1%
COc1cccc(NC(=O)C(c2ccccc2)N2CCN(c3ccccn3)CC2)c1 (configuration not stated) | -12% | 0 | -3 | -1.6 | 10% | 14%[15.4 µM] | nt
OCCNC(=S)Nc1ccc2c(c1)OCCO2 | 13% | -11 | nt | 2.5 | -7% | -11%[15.4 µM] | nt
Cc1oc2cc3oc(=O)c(CCC(=O)NCCCN4CCOCC4)c(C)c3cc2c1C | -5% | nt | -7 | 0.2 | 23% | nt | -16%
O=C(COc1ccc(Cl)cc1)NNC(=O)c1ccccc1C(=O)O | 7% | 0 | 1 | nt | 14% | 10% | -9.7%
CC1CCCCN1CCCNC(=O)c1ccc2c(=O)n(CCc3ccccc3)c(=O)[nH]c2c1 (configuration not stated) | 5% | 1 | -5 | 4.1 | 9% | 23% | ?
CC1CCN(S(=O)(=O)c2ccc3c(c2)CCC(=O)N3CC(=O)Nc2cccc(C#N)c2)CC1 | nt | 8 | 3 | nt | nt | nt | -0.3%
Cn1cnc2c(cnn2C)c1=N | 11% | 27 | nt | nt | nt | 28% | nt
O=C(CCC1CCCCC1)Nc1c[nH]c(=O)[nH]c1=O | -1% | 21 | 5 | 0.6 | 4% | -3% | 1.3%
Cc1ccc(NC(=S)NC2CCCC2)c(C)c1 | 3% | -4 | -16 | 1.0 | 16% | ? | nt
CC(=O)c1ccc(NC(=O)CN2CCN(S(=O)(=O)c3ccc4c(c3)OCCO4)CC2)cc1 | nt | 25 | nt | nt | nt | -33%[inhibitor] | -0.3%
CCN(CC)C(=O)Cn1cc(S(=O)(=O)CC(=O)NCc2ccc(C)cc2)c2ccccc21 | 4% | -2 | nt | nt | nt | -8%[15.4 µM] | -2.8%
Cc1ccc(S(=O)(=O)N2[C@@H](c3ccc(F)cc3)C(C(=O)O)=CC[C@H]2c2ccc(Cl)cc2)cc1 | -17% | -6 | 0 | nt | nt | -27% | 0.8%
CN(C)S(=O)(=O)c1cccc(C(=O)N=C2N=C3C=CC(Cl)=CN3Cc3ccccc32)c1 | -7% | 13 | 12 | 1.4 | 7% | 12%[15.4 µM] | nt
N#CC1=C(N)Oc2cc3c(cc2C1c1ccc(Cl)cc1)OCO3 (configuration not stated) | ? | 20 | 10 | 2.0 | 9% | 3% | 0.2%
CCCCN(CCCC)CCCNC(=O)Cn1cc2c(n1)-c1c(oc(C(=O)N3CCCC3)c1C)CC2 | 6% | 22&5 | -4 | 5.9 | 11% | 16% | 4.9%&31%
CCOC(=O)c1c(NC(=O)COC(=O)c2ccc(C)s2)sc2c1CC(C)(C)NC2(C)C | 2% | -14 | 10 | nt | nt | 4%[15.4 µM] | -8.5%
Nc1nc(-c2ccco2)nn1C(=O)c1ccccc1 | -5% | -15 | 5 | 1.5 | -22% | 25% | 2.1%
CCNC(=S)Nc1cc(OCC)c(N2CCOCC2)cc1OCC | 0% | -11 | -5 | -0.1 | -3% | -2% | -1.0%
CCOc1ccc2nc(NC(=O)C3=NNC(=O)CC3)sc2c1 | -18% | 15 | -14 | 0.1 | 4% | 26%[15.4 µM] | -4.2%
COc1ccc(S(=O)(=O)N2CCCCCC2)cc1NC(C)C(=O)Nc1ccc(NC(C)=O)cc1 (configuration not stated) | -1% | -3 | nt | nt | nt | -28% | -8.4%
N#C/C(=C/c1cccs1)c1nc2ccccc2[nH]1 | -7% | 25 | 5 | -16 | -22% | -87%[inhibitor] | -1.2%
O=C(c1cc2cc(Br)ccc2[nH]1)N1CCc2ccccc21 | -3% | -12 | 4 | 2.6 | 10% | 7%[15.4 µM] | nt
COc1cccc(OC)c1OCC(O)CN1CCN(c2ccccc2)CC1 (configuration not stated) | 9% | -9 | ? | 2.5 | 7% | 2% | -9.3%
O=C(/C=C/c1ccco1)NCCc1ccccc1 | -1% | 10 | -52 | 0.4 | -21% | 20%[15.4 µM] | nt
COc1cccc(CN2CC(C(=O)NCCc3ccc(C)o3)CCC2=O)c1 (configuration not stated) | -2% | -11 | -2 | nt | ? | 6% | 0.8%
CCOc1ccc(NC(=O)c2cc(OC)nc3ccccc23)cc1 | 23% | 10 | -2 | 2.2 | -2% | -2%[15.4 µM] | nt
CCCCS/C(N)=N/N=C/c1ccccc1O | 11% | -10 | -6 | 1.1 | 13% | 5% | -1.3%
